TRPML1 blocker: human mucolipin-1 channel inhibition. TRPML1-inducible cells, Ca2+ dye fluorescence, FDSS; hits give low values; inhibition of EC80 agonist-evoked calcium signal. activity change, negative = inhibition, % (no concentration beside the values). 390,000 compounds, 0.02% hits. AID 624415; in the data active means activity change below about -50%; inconclusive means about -30% to -50%; inactive means above about -30%;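 further: stimulus is agonist 54-4 at its EC80 concentration; on the % scale 0 is the no-effect control and ±100 the full control effect; compound concentration not given in the record; the text of the record puts the active cut at -80%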
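Tet-induced TRPML1-DL cells loaded with Ca8 no-wash calcium dye were read kinetically on FDSS. Compound addition was followed by EC80 agonist 54-4 (4 uM final); inhibition was read over 110 s.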
PINK1 modulator: changes PINK1 expression; PINK1 immunofluorescence, high-content cytometry, 24 h; Potency, µM (doses to about 76.6 µM), without a hit: at the top dose activation (PINK1 increase), most hits filed as activators; 410,000 compounds, 0.2% hits; active = well fitted activation curve with a large enough effect; inconclusive = small, poorly fitted or top-dose-only effect; inactive = flat fitted curve, though single readings scatter; cell line not stated here;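 further: potency means the concentration at half of the fitted maximal effect; % of control where 0% means no effect; nearly all actives have a fitted effect of over 65% in size; a mitochondrial uncoupler was the plate control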
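Decision-based qHTS: stable cells, 24 h exposure to five compound concentrations, CCCP as control. Fixed cells stained for PINK1 plus nuclear, mitochondrial and cell markers, cytometer read.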
ClpP mod: qHTS Assay for Activators of ClpP. Potency, µM (doses to about 57.5 µM), inactives show at the top dose activity change, negative = active. AID 651965, 2013. purified B. subtilis ClpP, FRET peptide cleavage, 20 min. 340,000 compounds, 1.9% hits; active = well fitted falling curve with a large enough effect; inconclusive = small, poorly fitted or top-dose-only effect; inactive = no such curve, though single readings can be large or run the other way; further: potency means the concentration at half of the fitted maximal effect; the source files actives as falling curves though it sought activators and does not explain the sign; nearly all actives have a fitted effect of over 65% in size; many hits overshoot -100%
Target sequence (P80244 whole entry, looked up): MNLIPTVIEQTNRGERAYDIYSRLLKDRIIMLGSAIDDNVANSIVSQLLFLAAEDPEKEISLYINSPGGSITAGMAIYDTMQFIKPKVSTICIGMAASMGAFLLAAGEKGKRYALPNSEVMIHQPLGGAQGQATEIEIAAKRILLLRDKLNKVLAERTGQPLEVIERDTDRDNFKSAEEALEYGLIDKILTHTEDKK
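FRET quenching reversal measured ClpP activation: 10 microg/mL B. subtilis ClpP at pH 8 with the FRET-FV decapeptide, read at 430 nm after 320 nm excitation. The 20-min minus 0-min signal was scaled between DMSO/no-enzyme wells and ADEP (5.8 microM final).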
Menin-MLL FL inh: menin-MLL binding inhibition, fluorescein peptide. Fluorescence polarization, fluorescein-MLL peptide displacement from menin. 290,000 tested, under 10 active. AID 1766. FP activity change, % at 61.4 µM; inconclusive = falling polarisation curve, or a change in total fluorescence; inactive = total fluorescence flat and polarisation flat or rising; no compound was filed as active; the % refers to the polarisation; negative = inhibition;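 further: % of control where 0% means no effect; inhibitors lower the polarisation; unlabelled MLL peptide was the positive control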
Sfp inh: Sfp phosphopantetheinyl transferase inhibition. Biochemical Sfp PPTase activity, qHTS. Potency, µM, for the others: max response, negative = inhibition, usual class: inhibitors. 310,000 compounds, 3.5% hits; active means well fitted inhibition curve with a large enough effect; inconclusive means small, poorly fitted or top-dose-only effect, or another doubt; inactive means no such curve, though single readings can be large or run the other way;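 further: the enzyme is Sfp with the accession as filed and its product quenches rhodamine fluorescence; potency means the concentration at half of the fitted maximal effect; 0% = enzyme reaction without inhibitor and -100% = no enzyme wells; top concentration of the series not given in the record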
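Compounds were incubated with enzyme (final 15 nM) for 15 min at room temperature before substrate addition started the reaction. Fluorescence at 525 nm excitation, 598 nm emission was recorded immediately and after 30 minutes.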
TRPV1 PAM: potentiators of human vanilloid receptor 1 (TRPV1); Q8NER1; TRPV1-expressing cells, Fluo-8 calcium influx, capsaicin EC20 potentiation; host cell line not named in the record; control for the full effect not named in the record; potentiation, % at 8.33 µM; 320,000 compounds, 0.02% hits; active means potentiation above 80%; inconclusive means 30% to 80%; inactive means below 30%; further: 0% is about no effect
Target sequence (Q8NER1 whole entry, looked up): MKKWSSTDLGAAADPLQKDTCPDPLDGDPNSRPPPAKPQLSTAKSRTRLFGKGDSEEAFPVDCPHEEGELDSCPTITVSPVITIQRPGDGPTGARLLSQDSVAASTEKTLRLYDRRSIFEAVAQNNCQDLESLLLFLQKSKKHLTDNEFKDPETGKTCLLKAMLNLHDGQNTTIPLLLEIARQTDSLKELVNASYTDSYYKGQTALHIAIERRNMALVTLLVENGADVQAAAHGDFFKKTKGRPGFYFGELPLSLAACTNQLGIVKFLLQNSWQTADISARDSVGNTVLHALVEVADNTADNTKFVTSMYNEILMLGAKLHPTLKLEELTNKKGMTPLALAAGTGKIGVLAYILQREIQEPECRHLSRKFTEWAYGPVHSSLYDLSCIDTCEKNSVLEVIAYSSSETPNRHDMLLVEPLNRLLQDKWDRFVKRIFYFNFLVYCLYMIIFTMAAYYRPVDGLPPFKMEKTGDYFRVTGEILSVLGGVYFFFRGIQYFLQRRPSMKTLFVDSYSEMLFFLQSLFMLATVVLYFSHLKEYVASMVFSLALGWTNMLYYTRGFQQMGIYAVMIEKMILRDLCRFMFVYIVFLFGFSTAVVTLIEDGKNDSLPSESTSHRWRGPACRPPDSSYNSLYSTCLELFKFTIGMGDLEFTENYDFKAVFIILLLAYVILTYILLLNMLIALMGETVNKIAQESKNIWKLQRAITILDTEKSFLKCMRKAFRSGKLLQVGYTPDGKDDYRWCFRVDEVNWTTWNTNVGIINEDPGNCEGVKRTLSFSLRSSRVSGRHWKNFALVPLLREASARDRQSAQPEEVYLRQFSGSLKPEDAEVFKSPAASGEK
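TRPV1-expressing cells were cultured overnight at 35.5C and loaded with Fluo-8 calcium dye for 40 to 90 min at room temperature. After a 10 s baseline, compound was added and calcium influx was read kinetically for 3 min (ex 480/em 520 nm).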
TRPML1 agonist: human mucolipin-1 channel agonism | Q9GZU1 | TRPML1-expressing cells, Ca2+ dye fluorescence, FDSS; host cell line not named in the record; reference of the full effect not given here | activation, % (concentration not given with the values) | 410,000 compounds, 0.12% hits | AID 624414; in the data active = activation above about 50%; inconclusive = about 30% to 50%; inactive = below about 30%; further: 0% is about no effect; the text of the record puts the active cut at 80%
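TRPML1-DL cells, Tet-induced overnight (~16 h, 37 degrees C), loaded 45-90 min at room temperature with Ca8 no-wash calcium dye plus quencher. FDSS fluorescence: 10 s baseline, compound pin-transfer, 110 s agonist read, then EC80 54-4 (4uM final) and 110 s antagonist read.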
* = called active by the depositor; ? = inconclusive; . = no result given; & = joins results of further samples; [ ] = dose if it differs, or a comment. Compounds as they come; about 4.4% have a hit in one of these screens.

SMILES	TRPML1 blocker	PINK1 modulator	ClpP mod	Menin-MLL FL inh	Sfp inh	TRPV1 PAM	TRPML1 agonist
O=c1cc(CSc2nnnn2-c2ccc(O)cc2)nc2sccn12	10.6	-0.5%	.	?	-21.0%	13.6	0.8
COc1cccc(NC(=O)CN(C)C(=O)c2cccc(NS(=O)(=O)c3ccc(Br)cc3)c2)c1	6.5	-0.7%	0.4%	.	.	.	-0.1
Cc1c(N=C/C=C2\N(C)c3ccccc3C2(C)C)c(=O)n(-c2ccccc2)n1C	25.2	.	-2.0%	4.4	-0.2%	-4.6	0.9
O=C(C1CSC2(c3ccc(F)cc3)CCC(=O)N12)N1CCCCCC1 (configuration not stated)	-5.4	1.6%[38.3 µM]	-0.7%	1.9	4.8%	-40.9	-0.3
CC1CCCC(C)N1CCCNC(=O)c1nn(C)c2c1CSc1ccccc1-2 (configuration not stated)	0.5	4.3%	-2.3%	.	6.7%	5.7	-0.2
COc1cc(/C=N/n2cnc3c(sc4nc(C)cc(C)c43)c2=O)ccc1O	0.3	6.6%	.	0.0	11.1%	?	-0.6
CC(=O)NCCNc1nc(-c2ccc(N(C)C)cc2)nc2ccccc12	.	1.2%	.	4.4	-1.8%	.	.
CC(C)C(=O)Nc1nnc(CCc2ccccc2)s1	18.1	0.6%	-1.8%	-5.0	6.4%	9.8	0.1
Cc1cc2nc3c(nc2cc1C)C(O)=C3O	-8.2	1.1%	-2.8%	4.5	79.4µM*	0.5	0.9
Cc1ccc(C2(CCNCc3ccco3)CCOC(C(C)C)C2)cc1 (configuration not stated)	21.3	?	-2.0%	1.7	3.6%	11.5	-0.2
CCOC(=O)C1CCCN(S(=O)(=O)c2cc(-c3onc(C)c3C)ccc2OC)C1 (configuration not stated)	31.9	4.2%	-1.8%	.	.	.	-0.4
COc1ccc(-c2ccc(CN3C(C(C)C)C(=O)N(Cc4cn(Cc5ccco5)nn4)CCS3(=O)=O)cc2)cc1 (configuration not stated)	-20.2	2.8%	-2.5%	.	.	.	0.6
CCOC(=O)N1CCN(C(=O)c2ccc(CS(=O)(=O)c3ccc(OC)cc3)o2)CC1	-7.8	0.1%	-2.0%	1.5	5.7%	-5.7	0.0
Cc1cc(N2CCN(C)CC2)nc2ccc(NC(=O)c3cccnc3Cl)cc12	5.0	-0.3%	-4.3%	0.9	8.5%	-7.1	0.8
Cc1ccc(Oc2c(F)c(F)nc(N3CCCC3)c2F)cc1	-15.2	1.5%	-3.7%	4.3	-3.1%	-6.4	-0.2
NC(=O)C1CCN(C(=O)c2cccc(CN3C(=O)c4ccccc4C3=O)c2)CC1	14.3	0.6%	-1.8%	.	.	-1.9	1.5
CC1CCN(S(=O)(=O)c2cccc(C(=O)Nc3ccccc3)c2)CC1	-10.7	1.3%	-2.1%	0.6	8.7%	1.3	-1.2
CC(C)c1cc(C(C)C)n2nc(N)nc2n1	20.6	-0.9%	4.1%	-19.7	?	11.5	1.8
COc1ccc(/C=C(\NC(=O)/C=C/c2ccco2)C(=O)NCCc2nc3ccccc3[nH]2)cc1	1.4	1.7%	4.0%	13.0	-7.4%	-2.2	-0.2
Nc1nc(NCCc2ccccc2)c2[nH]cnc2n1	.	-0.9%&0.3%	-0.8%&-1.4%	.	.	.	-0.5&-0.7
CN(C(=O)COC(=O)c1ccc2ccccc2n1)c1ccccc1	7.2	0.0%	10µM*	.	.	.	-0.1
CC(C)(C)C(=O)CSc1nc2ccccc2o1	5.2	1.5%	.	0.7	7.4%	-4.6	0.8
COc1cccc(C2(c3cccc(OC)c3)CC2C(=O)Nc2ccc(F)cc2)c1 (configuration not stated)	-7.2	0.2%	1.5%	5.6	17.5%	6.9	0.2
O=c1c(-c2cccs2)nc2cnc(Nc3ccccc3)nc2n1C[C@H]1CCCO1	.	?	.	?	6.1%	.	.
O=C(c1cc(Cl)nc2ccccc12)N(Cc1nnc(-c2ccccc2Cl)o1)C1CC1	-11.7	-0.2%	-4.2%	.	.	.	-0.8
CN1CCN(C2CC(=O)N(Cc3ccc(N4CCCC4=O)cc3)C2=O)CC1 (configuration not stated)	0.6	.	0.9%	-2.1	3.4%	0.8	-0.4
CN(C)c1nc(SCc2ccccc2Cl)nc2c1CCCC2	5.9	-0.4%	-14.9%	0.7	1.9%	-1.8	-0.2
Cc1ccc(O)c(C2=Nc3ccccc3N=C(c3ccco3)C2)c1	12.4	10.5%	-0.5%	10.0	-14.7%	-0.7	-1.5
CC(=O)CCc1oc2ccc([N+](=O)[O-])cc2c1-c1ccc(C)o1	-3.5	0.3%	.	0.1	-20.0%	-2.7	-0.7
COc1ccc2c(c1)[C@H]1[C@H](CO2)[C@H](c2ccccc2)[C@]2(C)C(=O)Nc3cc(Cl)ccc3C(=O)N12	0.7	2.6%	-9.8%	.	.	-6.0	-0.9
CCN1CCN(c2nc(N)c([N+](=O)[O-])c(Nc3cccc(C)c3)n2)CC1	4.6	1.1%	34.4%	1.8	5.8%	-0.5	0.0
CCN(C(=O)CSc1ncn[nH]1)c1cccc2ccccc12	31.1	0.4%	-1.2%	2.7	39.8µM*	5.6	0.1
COc1cc([N+](=O)[O-])cc(/C=N/NC(=O)C(O)(c2ccccc2)c2ccccc2)c1O	24.7	-2.4%	.	1.0	0.0%	5.7	2.4
N#CC1=C(SCc2ccccc2)NC(=O)C(C#N)C12CCCC2 (configuration not stated)	3.9	-0.9%	-0.9%	-3.5	0.8%	-0.7	1.3
C#CCn1cc(/C=N/NC(=O)c2cc3ccccc3o2)c2ccccc21	9.2	-1.5%	30.5%	10.4	6.0%	-2.3	0.1
CCCCC(=O)Nc1ccc2c(c1)nc1n2CCN(CCOC)C1	20.5	-0.2%	3.9%	5.1	10.4%	4.6	0.2
Cn1cc(Cl)c(C(=O)NNC(=S)Nc2cccc(Cl)c2)n1	5.2	0.2%	.	-1.0	14.6%	1.3	0.1
Cc1ccc(CNC(=O)c2sc3ncnc(N(C)C4CCCCC4)c3c2C)cc1	?	8.2%	?	.	.	.	0.3
Cc1ccc2ncc(S(=O)(=O)c3ccccc3)c(N3CCCCC3C)c2c1 (configuration not stated)	39.1&62.9	29.0%&2.6%	-0.2%&-2.8%	-3.1	-20.9%	-13.8	0.8&0.7
O=C1CCC(C(=O)Nc2cccc(S(=O)(=O)N3CCOCC3)c2)N1 (configuration not stated)	10.9	-1.0%	.	-5.5	14.7%	2.2	0.2
COc1ccc(C(=O)N2CCN(c3ccc([N+](=O)[O-])c(NCCc4ccc(OC)c(OC)c4)c3)CC2)cc1	9.1	0.6%	1.3%	.	5.9%	2.1	-0.6
Cc1ccc(O)c(NC(=O)c2ccccc2-c2ccccc2C(=O)O)c1	-19.0	1.8%	25.1µM*	-6.6	7.4%	1.7	0.7
O=C(CC(=O)Nc1ccc(F)cc1)Nc1ccc(F)cc1	6.6	5.7%	.	2.1	5.8%	-1.3	-1.2
CN(C)c1ccc(N=Cc2nc(-c3ccccc3)oc2OC(=O)c2cccc(Cl)c2)cc1	9.2	6.0%	0.1%	?	?	-10.9	3.4
Cc1onc(-c2ccccc2Cl)c1C(=O)N1CCCCCC1	-3.4	-1.2%	.	0.5	9.8%	-6.5	0.1
O=C(c1nnc(-c2ccccc2)o1)C1CC1	8.5	0.5%	.	-0.3	8.3%	-3.3	-0.8
COc1ccc(OC)c(NC(=O)Nc2cnccn2)c1	4.3	0.6%	-3.4%	0.2	11.2%	-2.3	0.3
O=C(COC(=O)CCC1CCCC1)NCc1ccc(Cl)cc1	6.7	1.1%	-0.3%	-4.1	14.3%	-16.9	1.1
Cc1ccc2cc(CN(C(=O)c3cccs3)c3ccccc3)c(=O)[nH]c2c1	-23.8	4.6%	.	0.2	15.4%	3.5	1.8
COc1ccc(CC(=O)N(C)CC(=O)Nc2ccccc2C(F)(F)F)cc1S(=O)(=O)N1CCOCC1	-5.3	0.2%	-2.8%	.	.	8.2	0.9
O=C(CCNC(=O)C1CCN(S(=O)(=O)c2ccccc2)CC1)NCc1ccc(Cl)cc1Cl	-1.2	0.0%	0.7%	.	8.0%	10.3	0.3
Cc1ccc(C(=O)CSc2nnc(-c3ccccc3N)n2C)cc1C	-12.9	3.3%	-1.1%	0.0	7.4%	-6.4	-0.4
COc1ccc(C(=O)C(Sc2nnc(C)c(=O)[nH]2)c2ccc(OC)cc2)cc1 (configuration not stated)	5.0	1.7%	0.9%	0.6	9.2%	1.7	0.3
O=c1c2ccccc2oc2nc(C3CCCCC3)n(Cc3ccco3)c(=O)c12	-8.3	-1.4%	-1.2%	-0.1	?	-6.9	-0.2
O=S(=O)(c1ccc(F)cc1)N1CCN(c2nc(-c3ccccc3)nc3cc(Cl)ccc23)CC1	-15.4	-1.6%	.	.	.	.	0.3
CCC(=O)c1ccc(OCC(=O)Nc2ccc(N3CCOCC3)cc2N2CCOCC2)cc1	12.1	3.5%	0.6%	.	9.2%	-2.2	-0.6
CN(C)c1ccc(CNS(=O)(=O)c2ccc3[nH]c4c(c3c2)CCCCC4)cc1	14.8	0.2%	96.9%	.	.	.	2.6
Cc1ccc(S(=O)(=O)C2CCN(c3nc(-c4cccs4)nc4ccccc34)CC2)cc1	.	0.6%	4.0%	.	.	.	0.5
CCOC(=O)c1cc(-c2ccc(OC)cc2OC)nn1-c1ccc(C(=O)O)cc1	8.1	2.3%	-5.7%	1.9	6.3%	0.9	0.2
